Six1-Eya2 blk = Six1/Eya2 interaction inhibition; Q15475+O00167; AlphaScreen GST-Six1/His-Eya2 binding, biochemical; active compounds read low; control for the full effect not named in the record; activity change, % (test concentration not listed); hit rate 0.56% among 360,000; in the data active = activity change below about -65%; inconclusive = about -30% to -65%; inactive = above about -30%; note: % is set by controls: 0 for no effect and ±100 for the full control effect
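Six1/Eya2 binding was read as AlphaScreen signal after compounds were pinned into GST-Six1 plus His-tagged Eya2 (5X stock 250/500 nM) in pH 8.0 Tris/NaCl/TCEP buffer, beads added, then incubated 1 h, 37 C, dark.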
CtBP-E1A inh = inhibitors of CtBP/E1A interaction | hit rate 0.49% among 340,000 | AlphaScreen GST-E1A/His-CtBP binding, 1536-well; active compounds read low; control for the full effect not named in the record | activity change, % (no concentration beside the values); in the data active means activity change below about -65%; inconclusive means about -30% to -65%; inactive means above about -30%; note: % is set by controls: 0 for no effect and ±100 for the full control effect
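GST-E1A and His-tagged CtBP (125 nM each as 5X stock) were preincubated with pin-transferred compound for 2 h at 37 °C in the dark, then glutathione donor and nickel acceptor beads were added for 1 h before AlphaScreen reading.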
D2 PAM = potentiates the human D2 dopamine receptor allosterically | AID 624464 | DiscoveRx D2 beta-arrestin cells, luminescence, 90 min; 100% = 57 uM dopamine signal | hit rate 0.23% among 360,000 | P14416 | potentiation, % (test concentration not listed); active = potentiation of 50% or more; inconclusive = 30% to 50%; inactive = 30% or less;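 note: compound concentration not given in the record; tested on top of an EC20 dose of dopamine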
Target sequence (P14416 whole entry, looked up): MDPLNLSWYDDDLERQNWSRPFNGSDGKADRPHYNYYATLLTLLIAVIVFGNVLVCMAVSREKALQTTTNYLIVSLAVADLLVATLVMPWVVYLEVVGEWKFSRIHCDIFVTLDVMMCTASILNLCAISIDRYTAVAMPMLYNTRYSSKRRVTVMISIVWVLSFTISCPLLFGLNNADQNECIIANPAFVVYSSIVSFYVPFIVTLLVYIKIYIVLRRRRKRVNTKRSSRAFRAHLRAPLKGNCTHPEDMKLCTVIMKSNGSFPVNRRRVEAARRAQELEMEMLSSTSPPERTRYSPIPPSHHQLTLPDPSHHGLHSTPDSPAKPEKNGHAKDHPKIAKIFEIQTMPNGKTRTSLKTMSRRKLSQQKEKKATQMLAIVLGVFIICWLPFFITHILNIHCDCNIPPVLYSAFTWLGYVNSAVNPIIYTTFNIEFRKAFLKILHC
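D2 cells co-treated with compound plus 50 nM dopamine (EC20) for 90 min at 37 deg C to detect potentiation. Beta-arrestin recruitment was read as enzyme-fragment luminescence after 1 h at ambient temperature. Full response was set by 57 uM dopamine.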
TRPV1 potentiator = potentiators of human vanilloid receptor 1 (TRPV1); TRPV1-expressing cells, Fluo-8 calcium influx, capsaicin EC20 potentiation; host cell line not named in the record; control for the full effect not named in the record; potentiation, % at 8.33 µM; hit rate 0.02% among 320,000; Q8NER1; active means potentiation above 80%; inconclusive means 30% to 80%; inactive means below 30%; note: 0% is about no effect
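Fluo-8 calcium influx in TRPV1-expressing cells, kinetic read (ex 480/em 520 nm). Compound added and read 3 min for agonist activity, followed by capsaicin at EC20 final and 2 min further read for enhancement.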
TRPML1 blocker = human mucolipin-1 channel inhibition; activity change, negative = inhibition, % (concentration not given with the values); Q9GZU1; AID 624415; hit rate 0.02% among 390,000; TRPML1-inducible cells, Ca2+ dye fluorescence, FDSS; active compounds read low; inhibition of EC80 agonist-evoked calcium signal; in the data active means activity change below about -50%; inconclusive means about -30% to -50%; inactive means above about -30%;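 note: stimulus is agonist 54-4 at its EC80 concentration; % is set by controls: 0 for no effect and ±100 for the full control effect; the text of the record puts the active cut at -80%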
Target sequence (Q9GZU1 whole entry, looked up): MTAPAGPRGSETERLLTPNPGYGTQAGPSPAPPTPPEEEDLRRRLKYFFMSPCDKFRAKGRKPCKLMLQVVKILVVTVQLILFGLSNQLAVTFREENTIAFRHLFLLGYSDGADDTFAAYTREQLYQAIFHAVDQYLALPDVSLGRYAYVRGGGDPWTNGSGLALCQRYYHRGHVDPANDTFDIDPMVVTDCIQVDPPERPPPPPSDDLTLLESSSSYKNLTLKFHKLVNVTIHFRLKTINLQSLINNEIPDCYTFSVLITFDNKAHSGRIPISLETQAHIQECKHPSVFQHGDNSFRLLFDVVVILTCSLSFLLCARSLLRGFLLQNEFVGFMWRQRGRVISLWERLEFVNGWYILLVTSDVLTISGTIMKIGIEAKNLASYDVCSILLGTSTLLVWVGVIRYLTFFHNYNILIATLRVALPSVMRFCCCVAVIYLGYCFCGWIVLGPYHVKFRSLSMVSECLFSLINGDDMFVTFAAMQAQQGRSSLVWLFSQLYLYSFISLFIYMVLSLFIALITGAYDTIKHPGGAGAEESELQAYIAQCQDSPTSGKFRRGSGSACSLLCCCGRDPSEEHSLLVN
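TRPML1-DL cells, Tet-induced overnight (~16 h, 37 °C) at 1,500 cells/well, were loaded with Ca8 no-wash dye plus quencher for 45-90 min at room temperature. Compounds were pinned during FDSS kinetic reading; agonist 54-4 at EC80 (4 uM final) then added.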
TRPML1 ag = activates the human TRPML1 channel. activation, % (test concentration not listed). Q9GZU1. hit rate 0.12% among 410,000. AID 624414. TRPML1-expressing cells, Ca2+ dye fluorescence, FDSS; host cell line not named in the record; reference of the full effect not given here; in the data active = activation above about 50%; inconclusive = about 30% to 50%; inactive = below about 30%; note: 0% is about no effect; the text of the record puts the active cut at 80%
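TRPML1-DL cells, Tet-induced overnight (~16 h, 37 degrees C), loaded 45-90 min at room temperature with Ca8 no-wash calcium dye plus quencher. FDSS fluorescence: 10 s baseline, compound pin-transfer, 110 s agonist read, then EC80 54-4 (4uM final) and 110 s antagonist read.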
Active calls of the source: *; u = inconclusive; x = not tested or not shown; & = joins results of further samples.

The first two records (preview)
Results follow in this order: Six1-Eya2 blk	CtBP-E1A inh	D2 PAM	TRPV1 potentiator	TRPML1 blocker	TRPML1 ag
- O=C(CCN1C(=O)CSC1=O)Nc1ccccc1
 : 2	6	-8	0	-2	-0.2
- N#Cc1cc2c(nc1SCC1COc3ccccc3O1)CCC2 (stereo not drawn)
 : 44	29	-9	-11	3	2.1

This part in full, previewed entries included:
Results follow in this order: Six1-Eya2 blk	CtBP-E1A inh	D2 PAM	TRPV1 potentiator	TRPML1 blocker	TRPML1 ag
- O=C(CCN1C(=O)CSC1=O)Nc1ccccc1
 : 2	6	-8	0	-2	-0.2
- N#Cc1cc2c(nc1SCC1COc3ccccc3O1)CCC2 (stereo not drawn)
 : 44	29	-9	-11	3	2.1
- CCOC(=O)c1[nH]c2ccc(OC)cc2c1NC(=O)CCN1CCSCC1
 : 5	-6	-1	4	-12	-0.1
- COc1ccc(-c2nnc(SCC(=O)NC(=O)NCc3ccccc3)o2)cc1
 : 3	4	14	-2	-10	1.3
- CCCn1c(SCC(=O)Nc2cccnc2Cl)n[nH]c1=O
 : -2	x	-3	x	3	0.0
- CCOc1ccc(C(=O)NCc2ccncc2)cc1OCC
 : -2	0	-41	-19	13	-0.1
- Cc1cccc(N2CC(C(=O)Nc3nnc(SCC(=O)Nc4cc(C)on4)s3)CC2=O)c1 (stereo not drawn)
 : 1	4	-7	13	3	-0.1
- COc1ccc(C(C(=O)NC2CCCC2)N(C(=O)CNC(=O)c2ccco2)c2cccnc2)cc1 (stereo not drawn)
 : 17	0	-2	4	-1	-0.8
- COc1ccccc1N1CCN(C(=O)CSc2ccc3c(C)cc(C)nc3n2)CC1
 : -18	-24	-8	8	-6	1.6
- Cc1ccc(S(=O)(=O)/N=C(/Nc2c(C)cccc2C)c2ccccc2)cc1
 : 5	6	-3	x	-10	0.7
- Cc1cc(NC(=O)/C(C#N)=C\c2ccc(-c3ccc(SC(F)F)cc3)o2)n(-c2ccccc2)n1
 : 4	0	-3	x	9	1.9
- CCC(C(=O)NCc1ccco1)N(C(=O)CNS(=O)(=O)c1ccccc1)c1ccccc1C (stereo not drawn)
 : -3	4	-4	-5	5	0.8
- CCn1c(C)nc2cc(C(=O)NNC(=S)Nc3ccc(F)cc3)ccc21
 : 4	-3	-13	x	4	0.1
- COc1ccc(Cl)cc1-c1nc(SCC(=O)N(C)C)n[nH]1
 : -22	7	-8	-7	-10	-0.3
- CS(=O)(=O)Nc1ccccc1NS(C)(=O)=O
 : 12	0	1	-3	7	0.7
- Cc1ccc(N(CC(=O)NC(C)c2ccccc2)S(=O)(=O)c2c(C)noc2C)cc1 (stereo not drawn)
 : 9	28	-6	4	8&-16	2.1&0.1
- COc1ccc(S(=O)(=O)N(C)C[C@H]2Oc3c(NC(=O)C4CCCCC4)cccc3C(=O)N([C@H](C)CO)C[C@@H]2C)cc1
 : -16	0	-5	x	2	0.0
- CCOC(=O)CC(=O)CSc1nc2c(cc1C#N)CCCCCC2
 : 0	44	-7	-1	-8	-0.3
- C[C@@H](NC(=O)c1nc[nH]c1C(=O)NCc1ccc(CNC(=O)OC(C)(C)C)cc1)c1ccccc1
 : -10	2	-2	25	-2	1.7
- CC1=C(C)CC(C(=O)NC2CCCC2)C(C(=O)O)C1 (stereo not drawn)
 : 12	4	0	3	-15	-0.5
- CCOC(=O)c1cc2c(=O)n3ccccc3nc2n(CCCOC)c1=NC(=O)c1ccncc1
 : 3	-6	5	6	1	-0.8
- CCOc1cc(C(=O)OCC(=O)Nc2ccc(F)cc2Cl)ccc1OCC(=O)N1CCOCC1
 : 0	6	-19	-37	7	-0.3
- O=C(Nc1ccccc1C(=O)O)c1ccc(Br)c(S(=O)(=O)NCc2ccccc2)c1
 : -28	-14	12	3	22	2.3
- O=C(OCCNC(=O)c1cc2ccccc2oc1=O)c1cccnc1
 : 2	5	-13	17	-2	-0.6
- O=C(O)CSc1nnc(CNc2ccc(Cl)cc2)n1Cc1ccccc1
 : -2	-1	0	2	1	-0.8
- COc1ccc(C2N=C(N)N=C(N)N2c2ccccc2OC)cc1OC (stereo not drawn)
 : -3	1	-4	-1	4	-0.3
- COc1ccc(S(=O)(=O)N2CCOCC2)cc1NC(=O)CC1CC2CCC1C2 (stereo not drawn)
 : 4	-3	-6	2	6	-0.4
- Cc1cccc(N2CC3=C(C2=O)C(c2ccccc2)NC(=O)N3C)c1 (stereo not drawn)
 : -10	-2	2	1	0	0.0
- O=C(O)c1ccc(-c2nnc(-c3cccc(Br)c3)o2)cc1
 : -4	x	-5	4	-19	0.6
- COc1cccc(NC(=O)c2cc([N+](=O)[O-])ccc2NCc2cccnc2)c1
 : -12	-8	-24	6	-5	1.2
- COc1ccc(NC(=O)CN(C)CC(=O)Nc2cccc(F)c2)cc1S(=O)(=O)N1CCCCC1
 : 1	10	-23	x	5	2.8
- Cc1ccc(N(C(C)C(=O)Nc2c(C)n(C)n(-c3ccccc3)c2=O)S(C)(=O)=O)cc1C (stereo not drawn)
 : 1	-5	2	-1	18	1.5
- CCc1ccc(N/C(SC)=C(/C#N)C(N)=O)cc1
 : 0	3	-17	-5	-2	-0.2
- CCOc1ccccc1N(CC(=O)NC1CCCCC1)S(=O)(=O)c1ccccc1
 : -5	-11	-2	-10	-14	1.3
- Cc1cc(C)c(NC(=O)CSc2nc3[nH]ncc3c(=O)[nH]2)c(C)c1
 : 8	4	-4	2	22	-0.1
- Cn1nc(NC(=O)C(F)(F)F)c2ncc(-c3ccccc3)nc21
 : 0	-6	-14	x	13	-0.6
- CC(NC(=O)c1ccc2c(=O)n3c(nc2c1)CCC3)c1ccc(S(N)(=O)=O)cc1 (stereo not drawn)
 : -16	-4	-4	-1	-6	1.2
- COC(=O)c1cc(OC)c(OC)cc1NC(=O)CSc1ccc(C)cc1
 : 0	5	-1	1	0	2.1
- CC(Oc1ccc(C#N)cc1)C(=O)Nc1ccc(-n2cnnn2)cc1 (stereo not drawn)
 : -6	7	-10	-33	-2	9.3
- Cc1ccccc1Nc1nc2ccccc2s1
 : 10	-11	1	-1	-19	-0.1

Some of the entries so far, with bars between the fields.
smiles | Six1-Eya2 blk | CtBP-E1A inh | D2 PAM | TRPV1 potentiator | TRPML1 blocker | TRPML1 ag
COc1ccc(NC(=O)CN(C)CC(=O)Nc2cccc(F)c2)cc1S(=O)(=O)N1CCCCC1 | 1 | 10 | -23 | x | 5 | 2.8
Cc1ccc(N(C(C)C(=O)Nc2c(C)n(C)n(-c3ccccc3)c2=O)S(C)(=O)=O)cc1C (stereo not drawn) | 1 | -5 | 2 | -1 | 18 | 1.5

Other structures follow.
Results follow in this order: Six1-Eya2 blk	CtBP-E1A inh	D2 PAM	TRPV1 potentiator	TRPML1 blocker	TRPML1 ag
- Cc1cc(C)c(S(=O)(=O)NCC(c2ccc3c(c2)OCO3)N2CCOCC2)c(C)c1 (stereo not drawn)
 : 4	5	-19	u	-10	0.0
- Cc1nc(NC(=O)CSc2nc(N)cc(N)n2)sc1C
 : 1	1	2	-4	-3	0.4
- C=CCSC1=C(C#N)C(c2ccc(OCC)cc2)CC(=O)N1 (stereo not drawn)
 : -6	-1	-6	0	2	-0.7
- Cc1c(C)n(CC(O)CNCCO)c2ccccc12 (stereo not drawn)
 : -10	1	-1	0	8	0.3
- O=C1c2ccccc2C2NC(=O)C3(CCCCC3)N12 (stereo not drawn)
 : -1	4	-21	11	-6	-0.5
- COC(=O)c1sc(N2C(=O)C(=O)/C(=C(/O)c3ccccc3)C2c2ccco2)nc1C (stereo not drawn)
 : -15	0	-7	-1	15	3.0
- Cc1ccc(S(=O)(=O)N(C)C)cc1NC(=S)NNC(=O)C(N)=O
 : u	x	-14	-3	-2	-0.7
- Cc1cccc(N=C2NC(=O)/C(=C/c3cccn3C)S2)c1
 : -18	x	-27	11	2	0.1
- Cc1sc2nc(N3CCOCC3)[nH]c(=O)c2c1-c1ccccc1
 : 0	1	-6	-8	5	-0.2
- Cc1ccc(S(=O)(=O)N2CCOCC2)cc1NC(=O)Cn1ccsc1=N
 : 0	0	22	8	-21	-0.5
- O=C(CN1CCN(c2ccccc2F)CC1)Nc1ccccc1F
 : 11	2	-35	-22	13	0.1
- CSc1ccccc1NC(=O)Cn1c([N+](=O)[O-])cnc1C
 : 1	7	-1	-6	10	0.8
- CC(=O)c1ccc(NC(=O)c2ccc(COc3ccccc3[N+](=O)[O-])o2)cc1
 : -18	7	-6	-1	-7	-0.8
- O=C(/C=C\c1ccccc1[N+](=O)[O-])Nc1ccccc1
 : -1	-2	-1	-13	16	-0.5
- O=C(O)/C=C1\CCCc2ccccc2C1O (stereo not drawn)
 : 2	3	-5	-7	-2	-0.2
- CCOc1cc(N2CCOCC2)c(OCC)cc1NC(=O)COC(=O)c1ccccc1C
 : -1	-4	-2	-5	33	2.0
- O=C(c1ccc2c(=O)n3c(nc2c1)CCCCC3)N1CCN(c2ccccc2F)CC1
 : -2	-23	-4	0	10	0.7
- CCOC(=O)C1CCCN(CCC(=O)Nc2cccc(F)c2)C1 (stereo not drawn)
 : 3	-4	-16	-2	17	0.3
- COc1ccc(C(=O)c2c[nH]cc2-c2ccccc2)cc1
 : -20	-23	-7	-2	23	-0.1
- Cn1cnc(S(=O)(=O)NCc2ccccc2)c1
 : 0	12	-10	6	5	-0.2
- CCOc1ccccc1OCCCCOc1ccccc1F
 : 82	96	-4	2	-5	2.1
- CCOc1ccccc1NC(=O)CN(C)S(=O)(=O)c1ccc2[nH]c(=O)oc2c1
 : -3	-10	-9	-14	-16	0.3
- CC(C)C(c1nnnn1C1CCCCC1)N1CCCc2ccccc21 (stereo not drawn)
 : -4	-9	-1	-10	1	1.2
- COc1ccccc1C(=O)COC(=O)CNS(=O)(=O)c1ccc(C)c(C)c1
 : 0	0	-11	16	-5	2.0
- Cc1ccc(NN2C(=O)C=C(c3ccc(Cl)cc3)C2=O)cc1
 : -1	-3	-1	-6	3	5.4
- O=C(CN1CCN(S(=O)(=O)c2ccc(F)cc2)CC1)Nc1ccc(Cl)cn1
 : 2	2	1	-8	-8	1.3
- COc1ccc(S(=O)(=O)N2CCN(C(=O)c3cc(C)oc3C)CC2)cc1
 : 3	-8	-9	-12	-6	-0.1
- CC(=O)c1ccc(NC(=O)C2CCCN(S(=O)(=O)c3c(C)[nH]c(=O)[nH]c3=O)C2)cc1 (stereo not drawn)
 : 0	7	-2	13	17	1.2
- COc1ccccc1NC(=O)C(=O)N1CCCC1
 : 7	4	-2	-26	-7	0.9
- O=C(COC(=O)c1cncc(Br)c1)Nc1ccc(N2CCCCC2)cc1
 : -12	x	4	3	-2	-0.6
- Cc1ccc(C)c(NC(=O)CN2C(=O)CC(C)S(=O)(=O)c3ccccc32)c1 (stereo not drawn)
 : 4	-5	-9	0	3	-0.3
- Cc1cc(F)c(F)c(C(=O)N2C(C)CCCC2C)c1Cl (stereo not drawn)
 : 4	15	-9	-8	5	0.4
- O=C(c1cccc(Cl)c1)N1CCCC(c2ccc(Cl)cc2)=N1
 : 27	7	-1	6	1	4.2
- Cc1cc(OCCCN2CCN(Cc3ccccc3)CC2)ccc1[N+](=O)[O-]
 : -24	-5	-20	-3	-1	-0.7
- Nn1c(SCC(=O)NC(=O)Nc2ccc3c(c2)OCCO3)nnc1C1CC1
 : -8	4	-1	1	-2	-0.9
- CC(=O)OCC(=O)NCC(=O)c1c[nH]c2ccccc12
 : 14	x	4	4	-11	0.1
